Compound activity: PubChem BioAssay, National Center for Advancing Translational Sciences (NCATS)
RE007 growth inh = less growth of the S. pombe RE007 Vpr strain. hit rate 0.21% among 360,000. Potency, µM (top dose mostly 92.2 µM), without a hit: at the top dose activity change, negative = less growth. S. pombe RE007 Vpr strain, BacTiter-Glo ATP luminescence, 24 h; control for the full effect not named in the record; active = well fitted falling curve with a large enough effect; inconclusive = small, poorly fitted or top-dose-only effect; inactive = no such curve, though single readings can be large or run the other way;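 further: on the % scale 0 is the no-effect control and ±100 the full control effect; nearly all actives have a fitted effect of over 50% in size; the assay follows cell death caused by Vpr and the record does not say whether a fall means rescue or toxicity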
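Fission yeast strain RE007, carrying one chromosomally integrated HIV-1 vpr copy, was seeded at OD 0.01 in PMG+AL medium with 23 nL pinned compound. After 24 h at 30 °C and 99% humidity, viability was read by BacTiter-Glo luminescence.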
Cruzain noTriton = cruzain (T. cruzi) inhibition without detergent; purified cruzain, Z-FR-AMC fluorescence, no detergent; Potency, µM, for inactives: max response, negative = inhibition, usual class: inhibitors; hit rate 2.3% among 200,000;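 further: plate controls were enzyme without inhibitor for no effect and buffer without enzyme for full effect; nearly all actives have a fitted effect of over 40% in size; top concentration of the series not given in the record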
Target sequence (P25779 123-467 limits assumed): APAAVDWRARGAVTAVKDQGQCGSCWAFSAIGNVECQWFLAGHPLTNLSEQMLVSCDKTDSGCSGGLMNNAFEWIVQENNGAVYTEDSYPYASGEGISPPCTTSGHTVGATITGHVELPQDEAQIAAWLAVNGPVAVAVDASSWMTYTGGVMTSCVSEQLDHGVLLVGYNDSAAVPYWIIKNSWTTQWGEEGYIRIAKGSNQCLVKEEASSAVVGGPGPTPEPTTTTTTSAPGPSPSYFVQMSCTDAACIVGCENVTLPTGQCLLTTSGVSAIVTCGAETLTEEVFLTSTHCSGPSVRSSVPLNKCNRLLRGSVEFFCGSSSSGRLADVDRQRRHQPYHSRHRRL
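Purified cruzain at 1.5 nM, pre-incubated 15 min with compound at room temperature in 100 mM sodium acetate pH 5.5, 5 mM DTT, 0.00005% Triton X-100. Reaction started with 2 uM Z-FR-AMC; AMC fluorescence increase over 60 s gives rate.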
Cruzain inh Det = inhibitors of Trypanosoma cruzi cruzain with detergent | P25779 | purified cruzain, Z-FR-AMC fluorescence, 0.01% Triton | Potency, µM, for the others: max response, negative = inhibition, usual class: inhibitors | hit rate 0.43% among 200,000 | AID 1478;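 further: plate controls were neutral wells for no effect and buffer without enzyme for full effect; nearly all actives have a fitted effect of over 40% in size; top concentration of the series not given in the record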
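Steps: dispense cruzain (1.5 nM final) in acetate buffer pH 5.5 with DTT and 0.01% Triton X-100; pin-transfer compounds; incubate 15 min RT; add Z-FR-AMC (2 uM final); read fluorescence every 30 s, using the 60 s intensity change.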
SARS PLP yeast = blocks SARS-CoV papain-like protease in a yeast assay | S. cerevisiae expressing SARS-CoV PLpro, growth rescue; control for the full effect not named in the record | Potency, µM (highest dose often 32.9 µM), for the others: at the top dose activity, positive = growth rescue | hit rate 0.19% among 330,000 | AID 485353; active means well fitted rising curve with a large enough effect; inconclusive means small, poorly fitted or top-dose-only effect; inactive means no such curve, though single readings can be large or run the other way; further: 0% is about no effect; nearly all actives have a fitted effect of over 55% in size; growth read by luminescence after 48 h
2A StopGo = FMDV 2A StopGo reporter, luciferase signal; human cells with a luciferase reporter of 2A StopGo recoding; control for the full effect not named in the record; Potency, µM (top dose mostly 57.9 µM), without a hit: at the highest dose signal change, negative = less light; hit rate 1.2% among 410,000; AID 1159524; active = well fitted falling curve with a large enough effect; inconclusive = small, poorly fitted or top-dose-only effect; inactive = no such curve, though single readings can be large or run the other way; tested in HEK293T cells; further: on the % scale 0 is the no-effect control and ±100 the full control effect; nearly all actives have a fitted effect of over 45% in size; luciferase light after 4 h
LASV entry inh = Lassa virus entry inhibition. Lassa virus pseudotype entry inhibition, cell reporter; control for the full effect not named in the record. Potency, µM (titrated, usually from 37.9 µM), for the others: at the highest dose activity change, negative = inhibition, most hits filed as inhibitors. hit rate 1.2% among 300,000. AID 540256; active means well fitted inhibition curve with a large enough effect; inconclusive means small, poorly fitted or top-dose-only effect, or effect the other way; inactive means flat fitted curve, though single readings scatter; tested in HEK293 cells; further: on the % scale 0 is the no-effect control and ±100 the full control effect; nearly all actives have a fitted effect of over 50% in size; luciferase read-out
NS1 inh = inhibitors of influenza NS1 protein function; S. cerevisiae slowed by influenza A NS1, growth recovery by OD600; Potency, µM (series often up to 46.1 µM), for the others: at the highest dose activity, positive = more growth; hit rate 0.4% among 270,000; AID 2326; active means well fitted rising curve with a large enough effect; inconclusive means small, poorly fitted or top-dose-only effect; inactive means no such curve, though single readings can be large or run the other way; further: nearly all actives have a fitted effect of over 50% in size
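Recovery from NS1-induced slow growth read by OD600 in budding yeast switched to galactose assay medium (pH 6.0, -URA) at 1:100 dilution. Compound 23 nl per well; the matching strain lacking NS1 serves as control.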
Marburg entry inh = Marburg virus entry inhibition; Marburg virus pseudotyped entry inhibition, cell reporter; control for the full effect not named in the record; about a third of the inactives were read at about 46 µM; Potency, µM (highest dose often 37.8 µM), for the others: at the highest dose activity change, negative = inhibition, most hits filed as inhibitors; hit rate 1.8% among 300,000; active = well fitted inhibition curve with a large enough effect; inconclusive = small, poorly fitted or top-dose-only effect, or effect the other way; inactive = flat fitted curve, though single readings scatter; tested in HEK293 cells; about a fifth of its hits are not listed in these tables; further: on the % scale 0 is the no-effect control and ±100 the full control effect; luciferase read-out
The depositor's hits bear a star; ? = inconclusive; / = no result given; & = joins results of further samples; [ ] = dose if it differs, or a comment. Unless noted, the call rests on the fitted dose curve; in most records, active means well fitted curve in the direction sought with a large enough effect; inconclusive means small, poorly fitted or top-dose-only effect, or another doubt; inactive means no such curve, though single readings can be large; an effect the other way counts as inactive or inconclusive. Potency means the concentration at half of the fitted maximal effect.

SMILES	RE007 growth inh	Cruzain noTriton	Cruzain inh Det	SARS PLP yeast	2A StopGo	LASV entry inh	NS1 inh	Marburg entry inh
O=c1oc2cc(OCc3ccc([N+](=O)[O-])cc3)ccc2c2c1CCCC2	23%	13µM*	1.2%	-1%	38%[activator]	?	6%	15%
C=CCN1C(=O)CSC1=Nc1ccc(C(=O)O)cc1	6%	/	/	-2%	-3%	/	-11%	/
CN(c1ccccc1)c1nc(N)c([N+](=O)[O-])c(NCc2ccccc2)n1	42%	/	/	0%	?	1%	-6%	-5%
CCOc1ccc(NC(=O)CC2C(=O)N(C)C(=S)N2CCCc2ccccc2)cc1 (stereo unspecified)	23%	8%	-8.4%	5%	-15%	?	-11%	?
N#Cc1c(-c2ccc(Br)cc2)cc(-c2cccnc2)nc1N	10%	-5%	-0.9%	17%	-12%	0%	-4%	-12%
COc1ccc(-c2nc3scc(CCNS(=O)(=O)c4c(C)noc4C)n3n2)cc1	/	9%	-1.6%	/	14%	8%[46.1 µM]	/	/
CCOC(=O)c1ccc(N2C(=O)c3n[nH]c(-c4cccs4)c3C2c2ccc(C(C)C)cc2)cc1 (stereo unspecified)	/	?	-3.1%	/	?	-19%[46.1 µM]	/	?
COc1ccc(S(=O)(=O)NCC(c2ccco2)N2CCOCC2)cc1OC (stereo unspecified)	/	21%	1.4%	/	8%	15%[46.1 µM]	/	/
COc1ccc(-c2cc(C(F)(F)F)n3nc(C(=O)Nc4cc(C)on4)cc3n2)cc1OC	13%	?	-0.3%	2%	-8%	0%	-42%	?
COCCNC(=S)N1CCN(c2nc3ccccc3s2)CC1	-11%	/	/	0%	-10%	/	-4%	/
CCOC(=O)c1ccc(NC(=O)c2ccc(CN3C(=O)CCn4nc(C)cc43)cc2)cc1	/	20%	3.5%	/	2%	25%[46.1 µM]	/	/
O=C(NC1CCCCC1)c1cccc(OCc2ccccc2)c1	4%	/	/	-5%	-13%	-23%[46.1 µM]	-10%	-24%[46.1 µM]
CC(C)(C)n1nc2c(c1NC(=O)c1cc(Cl)ccc1[N+](=O)[O-])CS(=O)(=O)C2	-12%	/	/	9%	-3%	/	6%	/
O=C(COC(=O)/C=C/c1cccc(C(F)(F)F)c1)NCc1ccc(F)cc1	-8%	-22%	-2.8%	7%	-19%	-6%	10%	11%
CC(C)CCN(CCC(C)C)C/C(O)=C(\C#N)c1nc(-c2ccccc2)cs1	1%	0%	-3.1%	1%	26%	-28%	4%	-24%
COc1cc(CCC(=O)OCC(=O)Nc2ccc(F)c(F)c2)cc(OC)c1OC	-9%	/	/	0%	-10%	-9%	-5%	14%
O=C(Nc1nccs1)C(c1ccccc1)N1CCCC1 (stereo unspecified)	-1%	/	/	4%	0%	10%	4%	2%[46.1 µM]
COc1ccc(/C=C/c2nc(C#N)c(NCCc3ccc(OC)c(OC)c3)o2)cc1OC	/	-8%	-20%	/	?	?	/	-21%[46.1 µM]
CC(=O)Nc1ccc(OCC(O)CN2CCN(c3ccc(F)cc3)CC2)cc1 (stereo unspecified)	3%	/	/	?	-6%	10%	12%	2%
C/C(=N/NC(=O)c1ccncc1)c1ccc(NC(=O)c2ccc(Cl)cc2Cl)cc1	0%	/	/	-3%	5%	1%[46.1 µM]	8%	?
Nc1nonc1-n1nnc(C(=O)O)c1-c1cccs1	7%	-7%	9.3%	6%	-18%	-1%	1%	?
Cc1ccc(S(=O)(=O)N(CCc2ccccc2)CC(=O)Nc2cc(C)ccc2C)cc1	/	4%	0.7%	/	-17%	9%[46.1 µM]	/	/
COc1ccc(Nc2nc3cc(Cl)c(Cl)cc3n3cnnc23)cc1Cl	/	-5%	-0.9%	/	1%	16%[46.1 µM]	/	-19%[46.1 µM]
CN(C(=O)c1ccncc1)c1nnc(-c2cccnc2)s1	5%	8%	-2.9%	-2%	34%[activator]	1%	-1%	2%
Cc1ccn2cc(-c3ccc(Br)cc3)nc2c1	?	/	/	-4%	-86%	/	-59%	/
SMILES	RE007 growth inh	Cruzain noTriton	Cruzain inh Det	SARS PLP yeast	2A StopGo	LASV entry inh	NS1 inh	Marburg entry inh
O=C(Cc1ccccc1[N+](=O)[O-])NCC(=O)c1ccc2c(c1)OCO2	-7%	/	/	/	20%	15%[46.1 µM]	/	9%
CC1CC(C)CN(C(=O)COC(=O)Cc2c[nH]c3ccccc23)C1 (stereo unspecified)	6%	/	/	-16%	-17%	-2%	/	3%
COc1ccc(OCC(=O)Nc2ccccc2C(=O)N2CCOCC2)cc1	-3%	/	/	2%	-1%	-3%	/	?
CCN(CC)C(=O)COc1ccc(Br)cc1Cl	-14%	2%	-3.3%	-5%	-9%	-4%	0%	4%
Cc1nc2ccccn2c1P(=Nc1ccccc1)(N(C)C)N(C)C	-7%	14%	0.7%	6%	/	-1%	-8%	1%
CCN(C(=O)CN1CCCc2cc(C)ccc21)c1c(N)n(Cc2ccccc2)c(=O)[nH]c1=O	-5%	/	/	/	-6%	12%	/	-4%[46.1 µM]
O=C(COC(=O)CNS(=O)(=O)c1ccccc1)NC12CC3CC(CC(C3)C1)C2	13%	/	/	-1%	-18%	-2%[46.1 µM]	/	3%[46.1 µM]
Cc1cc(C)cc(OCC(=O)OCC(=O)c2ccc3c(c2)NC(=O)CO3)c1	1%	?	7.1%	0%	2%	-22%	-4%	-7%
COc1ccc(N(C(=O)CNC(=O)c2ccco2)C(C(=O)NC2CCCCC2)c2cccnc2)cc1 (stereo unspecified)	1%	/	/	0%	49%[activator]	12%[46.1 µM]	-4%	4%[46.1 µM]
O=C(NCc1ccco1)Nc1cccc2ccccc12	-1%	/	/	/	27%	5%[46.1 µM]	/	0%[46.1 µM]
COc1ccc2c(Cl)c(C(=O)NCc3ccco3)sc2c1	?	-10%	-26%	-7%	68%[activator]	10%	-12%	?
Cc1ccc(CNC(=O)CN2C(=O)CC(c3ccc(C)c(C)c3)=Nc3ccccc32)cc1	/	-1%	-3.7%	/	25%	-28%[46.1 µM]	/	/
COCCn1c(C)cc(O)c(C(c2ccccc2)N2CCC(C)CC2)c1=O (stereo unspecified)	/	16%	-0.8%	/	-10%	0%[46.1 µM]	/	/
Cc1ccc(S(=O)(=O)NCC2CCC(C(=O)NCCCN3CCOCC3)CC2)cc1 (stereo unspecified)	-7%	1%	5.0%	-4%	-15%	0%	-7%	11%&11%[46.1 µM]
Cn1cc(Br)c(NC(=O)/C=C/C(=O)O)n1	0%	/	/	1%	-4%	/	-1%	/
O=c1c(-c2ccc(Br)cc2)coc2c(CN3CCCCC3)c(O)ccc12	-10%	/	/	0%	-19%	/	6%	/
CCN(CCn1cccn1)Cc1cn[nH]c1-c1ccc(-c2ccccc2)cc1	-10%	/	/	-2%	25%	/	4%	/
CC(=O)C(C(c1ccccc1)N1CCCc2ccccc21)N1CCOCC1 (stereo unspecified)	32%	/	/	/	-23%	-4%[46.1 µM]	/	23%[46.1 µM]
COc1ccc(C2=[N+]([O-])C(C)(C)C(c3ccccc3)=N2)cc1	-30%	/	/	-6%	-13%	-6%	/	-13%[46.1 µM]
Cc1cccc(N/C(N)=N/c2nc(C)cc(=O)[nH]2)c1	5%	/	/	0%	-5%	-14%[46.1 µM]	10%	-1%[46.1 µM]
N#C/C(=C/c1cn(-c2ccccc2)nc1-c1cccc(OCc2ccc(F)cc2)c1)C(=O)NCCCn1ccnc1	-3%	?	-9.4%	-38%	-7%	?	?	?
O=C(NC1CCCCCCC1)C1CCC(CNc2c(N3CCCC3)c(=O)c2=O)CC1 (stereo unspecified)	5%	-16%	-3.2%	-1%	-6%	0%	16%	13%
Cc1ccc(CNC(=S)Nc2ccc(OC(F)F)cc2C)cc1	5%	8%	-4.1%	-8%	13%	-8%	13%	4%
Cc1cc2[nH]c(=O)c(=O)[nH]c2cc1S(=O)(=O)Nc1cccc(Cl)c1C	8%	/	/	-4%	-10%	/	-1%	/
Cc1ccc(OCC(=O)Nc2ccc3c(c2)OCO3)c(C)c1	-10%	/	/	-2%	24%	?	4%	?
SMILES	RE007 growth inh	Cruzain noTriton	Cruzain inh Det	SARS PLP yeast	2A StopGo	LASV entry inh	NS1 inh	Marburg entry inh
O=C(Cn1ccn(-c2ccc(F)c(F)c2)c(=O)c1=O)c1ccc(F)cc1	/	5%	-2.4%	/	-9%	4%[46.1 µM]	/	/
CCOC(=O)c1ccc(NC(=S)N(CCCN2CCN(CC)CC2)Cc2ccco2)cc1	5%	/	/	-2%	-6%	?	0%	?
O=C(NCc1ccco1)C(=S)N1CCCC1	3%	/	/	1%	1%	10%	5%	-20%[46.1 µM]
O=C(COC(=O)c1cc(S(=O)(=O)N2CCCCC2)ccc1N1CCOCC1)NCCc1ccc(F)cc1	-7%	/	/	4%	2%	/	?	/
O=C(C1CCN(S(=O)(=O)N2CCOCC2)CC1)N1CCN(Cc2ccc3c(c2)OCO3)CC1	26%	3%	4.4%	5%	0%	?	-3%	-4%
Cc1ccc(S(=O)(=O)NCC(c2cccnc2)N(C)C)cc1 (stereo unspecified)	-6%	5%	6.7%	0%	1%	5%	1%	?
CCc1ccc(-n2nc(C)c3c(C)cc(=O)n(CC(=O)Nc4cc(Cl)ccc4OC)c32)cc1	/	-6%	0.2%	/	-6%	0%[46.1 µM]	/	/
Cc1cccc(NC(=O)c2ccc(Cl)c(S(=O)(=O)N3CCCC3)c2)n1	-19%	/	/	29%	10%	2%	-14%	?
Cc1nnc(NC(=O)CCSc2ccccc2)s1	-5%	?	4.8%	13%	23%	1%	-6%	10%
Cc1cc(=O)[nH]c(N/N=C/c2c(C)oc3ccccc23)n1	99%	/	/	1%	-23%	23%[46.1 µM]	/	-11%[46.1 µM]
COc1ccc(-c2cnc3c(c2)CCC3(C#N)C#N)cc1	-11%	-5%	-8.6%	-24%	-2%	?	-18%	8%
O=c1c2cn[nH]c2[nH]c(=S)n1-c1cccc(Cl)c1	5%	-4%	-14%	-21%	10%	?	-7%	6%
CC(C)CCn1c(=O)c2cccnc2n(CC(=O)Nc2ccccc2)c1=O	/	-8%	-1.3%	/	0%	/	/	?
FC(F)(F)c1cc(Oc2ccccc2Cl)nc(-c2ccccn2)n1	37%	4%	1.0%	-3%	?	?	-54%	?
OC(COc1ccc(F)cc1Cl)CN1CCC(Cc2ccccc2)CC1 (stereo unspecified)	-12%	/	/	0%	?	/	-4%	/
COc1ccc(C)c2sc(N(CCN(C)C)C(=O)/C=C/c3cccs3)nc12	-5%	/	/	-1%	-17%	/	-36%	/
